Ran FRET: RanGTP/importin-beta interaction disruptors – biochemical, CFP-Ran/YFP-importin-beta FRET, RCC1, cell-free, primary screen (AID 434961); CFP-Ran/YFP-importin-beta FRET, cell-free; hits give high values; inhibition, %; 7,700 compounds, 0.2% hits;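 active = more than half of the replicate wells above 15% inhibition; inconclusive = exactly half above it; inactive = fewer than half above it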;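 note: 0% = DMSO wells and 100% inhibition = RanGDP control wells on each plate; stock of unstated strength diluted about 400-fold; mean of two wells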
The depositor's hits bear a star; ? = inconclusive. Only part of the results is shown (hit frequency here may not be typical).

Sample of the layout, two compounds:
Ran FRET | Molecule
1.1 | C[C@H]1CN([C@@H](C)CO)C(=O)c2cccc(NC(=O)c3ccncc3)c2O[C@@H]1CN(C)Cc1ccc(Cl)c(Cl)c1
-2.6 | CC(C)NC(=O)Nc1ccc2c(c1)C(=O)N([C@@H](C)CO)C[C@@H](C)[C@@H](CN(C)Cc1ccc(C(=O)O)cc1)OCCCC[C@H](C)O2

Main list (from the top)
Ran FRET | Molecule
1.1 | C[C@H]1CN([C@@H](C)CO)C(=O)c2cccc(NC(=O)c3ccncc3)c2O[C@@H]1CN(C)Cc1ccc(Cl)c(Cl)c1
-2.6 | CC(C)NC(=O)Nc1ccc2c(c1)C(=O)N([C@@H](C)CO)C[C@@H](C)[C@@H](CN(C)Cc1ccc(C(=O)O)cc1)OCCCC[C@H](C)O2
1.6 | C[C@H](CO)N1C[C@H](C)[C@@H](CN(C)Cc2ccc(C(=O)O)cc2)Oc2ccc(NC(=O)NC3CCCCC3)cc2CC1=O
3.2 | Cc1noc(C)c1S(=O)(=O)Nc1ccc2c(c1)C(=O)N([C@H](C)CO)C[C@H](C)[C@@H](CN(C)C(=O)Nc1ccccc1)OCCCC[C@H](C)O2
-0.3 | COc1ccc(CN(C)C[C@@H]2Oc3ccc(NS(=O)(=O)c4ccc(Cl)cc4)cc3C(=O)N([C@H](C)CO)C[C@@H]2C)cc1
1.9 | CNC[C@@H]1Oc2c(NS(=O)(=O)c3cn(C)cn3)cccc2C(=O)N([C@H](C)CO)C[C@H]1C
-4.4 | C[C@@H]1CCCCO[C@H](CN(C)S(C)(=O)=O)[C@@H](C)CN([C@H](C)CO)C(=O)c2cc(NS(=O)(=O)c3ccccc3)ccc2O1
-2.2 | C[C@H]1CN([C@@H](C)CO)C(=O)Cc2cc(NC(=O)C3CC3)ccc2O[C@H]1CN(C)C(=O)Nc1ccc(F)cc1
-0.3 | CC(C)NC(=O)N(C)C[C@@H]1Oc2ccc(NS(=O)(=O)c3cccs3)cc2CC(=O)N([C@H](C)CO)C[C@@H]1C
-2.7 | C[C@H](CO)N1C[C@H](C)[C@@H](CN(C)Cc2ccncc2)Oc2ccc(N(C)C)cc2C1=O

The results go on.
Ran FRET | Molecule
-1.0 | C[C@@H]1CN([C@@H](C)CO)C(=O)c2cc(NS(C)(=O)=O)ccc2O[C@@H](C)CCCCO[C@H]1CN(C)S(=O)(=O)c1cccs1
-1.6 | C[C@@H]1CN([C@@H](C)CO)C(=O)c2cccc(NS(=O)(=O)c3ccccc3)c2O[C@H]1CN(C)C(=O)Nc1ccc(C(F)(F)F)cc1
-0.5 | CNC[C@H]1Oc2ccc(NS(=O)(=O)c3ccccc3)cc2CC(=O)N([C@@H](C)CO)C[C@@H]1C
-2.8 | C[C@H]1CN([C@@H](C)CO)C(=O)Cc2cc(N(C)C)ccc2O[C@@H]1CN(C)C
-6.3 | C[C@H](CO)N1C[C@H](C)[C@@H](CN(C)C(=O)CCC(F)(F)F)OCCCC[C@H](C)Oc2ccc(NS(C)(=O)=O)cc2C1=O
0.2 | C[C@@H]1CN([C@H](C)CO)C(=O)c2cccc(NC(=O)C3CCOCC3)c2O[C@@H]1CN(C)C
-3.0 | C[C@H](CO)N1C[C@H](C)[C@@H](CN(C)Cc2ccc(C(F)(F)F)cc2)OCc2cnnn2CCCC1=O
2.0 | CC(C)NC(=O)N(C)C[C@H]1OCc2cnnn2CCCC(=O)N([C@@H](C)CO)C[C@H]1C
-1.6 | COc1ccc(S(=O)(=O)N(C)C[C@H]2Oc3ccc(NS(C)(=O)=O)cc3CC(=O)N([C@@H](C)CO)C[C@H]2C)cc1
-0.3 | COc1ccc(CN(C)C[C@@H]2OCCCC[C@H](C)Oc3ccc(NC(=O)Nc4c(C)noc4C)cc3C(=O)N([C@@H](C)CO)C[C@H]2C)cc1

Another view of part of the listing above.
| SMILES | Ran FRET |
| --- | --- |
| CNC[C@H]1Oc2ccc(NS(=O)(=O)c3ccccc3)cc2CC(=O)N([C@@H](C)CO)C[C@@H]1C | -0.5 |
| C[C@H](CO)N1C[C@H](C)[C@@H](CN(C)Cc2ccc(C(F)(F)F)cc2)OCc2cnnn2CCCC1=O | -3.0 |

Further results:
Ran FRET | Molecule
31.0* | C[C@H]1CN([C@@H](C)CO)C(=O)c2cccc(NS(=O)(=O)c3cn(C)cn3)c2O[C@H]1CN(C)C
-4.3 | C[C@H](CO)N1C[C@H](C)[C@@H](CN(C)S(=O)(=O)c2ccc(F)cc2)OCCCC[C@H](C)Oc2ccc(NC(=O)Nc3ccccc3)cc2C1=O
2.2 | CC(C)NC(=O)N(C)C[C@H]1OCc2cn(nn2)CCCC(=O)N([C@H](C)CO)C[C@@H]1C
-2.1 | C[C@@H]1CN([C@@H](C)CO)C(=O)c2cc(NC(=O)C3CC3)ccc2O[C@H]1CN(C)Cc1ccc2c(c1)OCO2
0.1 | C[C@H]1CCCCO[C@@H](CN(C)S(=O)(=O)c2ccc(F)cc2)[C@@H](C)CN([C@@H](C)CO)C(=O)c2cc(NC(=O)Nc3ccccc3)ccc2O1
4.2 | Cc1noc(C)c1S(=O)(=O)N(C)C[C@H]1Oc2ccc(N(C)C)cc2CC(=O)N([C@H](C)CO)C[C@H]1C
? | C[C@@H]1CN([C@H](C)CO)C(=O)Cc2cc(NC(=O)C3CC3)ccc2O[C@@H]1CN(C)Cc1ccc(Cl)c(Cl)c1
-1.8 | CNC[C@@H]1Oc2c(NS(=O)(=O)c3cn(C)cn3)cccc2C(=O)N([C@@H](C)CO)C[C@H]1C
-1.6 | C[C@H]1CN([C@@H](C)CO)C(=O)c2cccc(NS(=O)(=O)c3cccs3)c2O[C@H]1CN(C)C(=O)NC1CCCCC1
-3.9 | CNC[C@H]1OCCCC[C@H](C)Oc2ccc(NS(=O)(=O)c3ccccc3)cc2C(=O)N([C@@H](C)CO)C[C@@H]1C

(more compounds)
Ran FRET | Molecule
? | C[C@@H]1CN([C@@H](C)CO)C(=O)Cc2cc(NC(=O)Cc3cn(C)c4ccccc34)ccc2O[C@H]1CN(C)CC1CC1
-4.9 | Cc1noc(C)c1NC(=O)N(C)C[C@H]1Oc2ccc(NC(=O)Cn3cnnn3)cc2C(=O)N([C@H](C)CO)C[C@@H]1C
0.6 | C[C@H]1CN([C@@H](C)CO)C(=O)Cc2cc(NC(=O)CCN3CCOCC3)ccc2O[C@@H]1CN(C)S(=O)(=O)c1ccccc1
-1.6 | Cc1noc(C)c1NC(=O)Nc1ccc2c(c1)CC(=O)N([C@H](C)CO)C[C@H](C)[C@@H](CN(C)C(=O)Nc1cccc3ccccc13)O2
-4.7 | COc1ccc(NC(=O)N(C)C[C@H]2Oc3c(NS(=O)(=O)c4cccs4)cccc3C(=O)N([C@@H](C)CO)C[C@H]2C)cc1
-6.5 | C[C@@H]1CN([C@H](C)CO)C(=O)c2cccc(NC(=O)c3ccc(-c4nccs4)cc3)c2O[C@H]1CN(C)C(=O)Nc1ccccc1
-0.6 | COc1ccc(S(=O)(=O)Nc2cccc3c2O[C@@H](CN(C)Cc2ccc(C(=O)O)cc2)[C@@H](C)CN([C@H](C)CO)C3=O)cc1
3.3 | COc1ccc(S(=O)(=O)N(C)C[C@H]2Oc3ccc(NC(=O)Nc4ccc(C(F)(F)F)cc4)cc3CC(=O)N([C@@H](C)CO)C[C@@H]2C)cc1
-11.0 | C[C@H](CO)N1C[C@H](C)[C@H](CN(C)Cc2ccc(C(=O)O)cc2)Oc2ccc(NC(=O)CCCN(C)C)cc2C1=O
-2.7 | C[C@H](CO)N1C[C@H](C)[C@H](CN(C)C)Oc2ccc(N(C)C)cc2C1=O

Continued.
Ran FRET | Molecule
0.0 | Cc1noc(C)c1S(=O)(=O)Nc1cccc2c1O[C@@H](CN(C)Cc1ccc(Cl)c(Cl)c1)[C@@H](C)CN([C@H](C)CO)C2=O
2.6 | Cc1ccc(OC(=O)N(C)C[C@@H]2OCc3cn(nn3)CCCC(=O)N([C@H](C)CO)C[C@@H]2C)cc1
1.0 | Cc1noc(C)c1S(=O)(=O)Nc1ccc2c(c1)CC(=O)N([C@H](C)CO)C[C@H](C)[C@H](CN(C)Cc1ccc(-c3ccccc3)cc1)O2
2.9 | COc1ccc(CN(C)C[C@H]2Oc3ccc(NS(=O)(=O)c4ccc(OC)cc4)cc3CC(=O)N([C@@H](C)CO)C[C@@H]2C)cc1
-3.9 | Cc1noc(C)c1S(=O)(=O)N(C)C[C@@H]1OCCCC[C@H](C)Oc2ccc(NC(=O)CCCN(C)C)cc2C(=O)N([C@H](C)CO)C[C@H]1C
-3.0 | C[C@@H]1CN([C@H](C)CO)C(=O)c2cccc(NS(=O)(=O)c3ccc(Cl)cc3)c2O[C@H]1CN(C)Cc1ccncc1
0.1 | C[C@H]1CN([C@@H](C)CO)C(=O)c2cc(N(C)C)ccc2O[C@@H]1CN(C)Cc1ccccc1
-1.2 | C[C@@H]1CCCCO[C@H](CN(C)C(=O)Nc2ccccc2)[C@H](C)CN([C@H](C)CO)C(=O)c2cc(NC(=O)Nc3ccccc3)ccc2O1
-3.2 | C[C@@H]1CN([C@@H](C)CO)C(=O)Cc2cc(N(C)C)ccc2O[C@H]1CN(C)S(=O)(=O)c1ccccc1
2.9 | C[C@@H]1CN([C@@H](C)CO)C(=O)Cc2cc(NC(=O)c3ccncc3)ccc2O[C@@H]1CN(C)C(=O)Nc1cccc2ccccc12

(continued)
Ran FRET | Molecule
0.4 | CNC[C@H]1OCCCC[C@@H](C)Oc2ccc(N)cc2C(=O)N([C@H](C)CO)C[C@H]1C
-0.8 | Cc1noc(C)c1NC(=O)N(C)C[C@H]1Oc2ccc(NC(=O)Nc3ccc(F)cc3)cc2C(=O)N([C@@H](C)CO)C[C@@H]1C
-3.4 | COc1ccc(S(=O)(=O)Nc2cccc3c2O[C@H](CN(C)Cc2ccc(C(F)(F)F)cc2)[C@@H](C)CN([C@@H](C)CO)C3=O)cc1
-1.3 | C[C@H](CO)N1C[C@H](C)[C@H](CN(C)C)OCCCC[C@H](C)Oc2ccc(NC(=O)c3ccccc3)cc2C1=O
-0.3 | COc1ccc(S(=O)(=O)N(C)C[C@@H]2Oc3ccc(NS(C)(=O)=O)cc3CC(=O)N([C@@H](C)CO)C[C@H]2C)cc1
2.0 | C[C@@H]1CCCCO[C@@H](CN(C)C(=O)Nc2ccccc2)[C@H](C)CN([C@@H](C)CO)C(=O)c2cc(NC(=O)Nc3ccccc3)ccc2O1
0.0 | C[C@@H]1CCCCO[C@@H](CN(C)S(=O)(=O)c2ccccc2)[C@H](C)CN([C@H](C)CO)C(=O)c2cc(NC(=O)CCC(F)(F)F)ccc2O1
0.7 | C[C@@H]1CN([C@@H](C)CO)C(=O)c2cc(NC(=O)Nc3ccc(F)cc3)ccc2O[C@H]1CN(C)Cc1ccc2c(c1)OCO2
-0.3 | C[C@H](CO)N1C[C@H](C)[C@H](CN(C)S(=O)(=O)c2cccs2)Oc2c(NC(=O)c3nc4ccccc4s3)cccc2C1=O
1.6 | CC(C)NC(=O)N(C)C[C@H]1Oc2c(NC(=O)C3CC3)cccc2C(=O)N([C@H](C)CO)C[C@@H]1C

New compounds follow
Ran FRET | Molecule
-3.0 | COc1ccc(NC(=O)Nc2cccc3c2O[C@H](CN(C)Cc2ccc(C(=O)O)cc2)[C@@H](C)CN([C@H](C)CO)C3=O)cc1
0.8 | C[C@H](CO)N1C[C@H](C)[C@H](CN(C)S(=O)(=O)c2cccs2)Oc2ccc(NC(=O)NC3CCCCC3)cc2C1=O
-2.2 | C[C@@H]1CN([C@@H](C)CO)C(=O)c2cc(NS(=O)(=O)c3ccccc3)ccc2O[C@@H](C)CCCCO[C@H]1CN(C)Cc1ccccc1
5.9 | Cc1noc(C)c1S(=O)(=O)Nc1ccc2c(c1)CC(=O)N([C@H](C)CO)C[C@H](C)[C@H](CN(C)C(=O)Nc1cccc3ccccc13)O2
-0.5 | C[C@H]1CCCCO[C@@H](CN(C)Cc2ccccc2)[C@@H](C)CN([C@@H](C)CO)C(=O)c2cc(NS(=O)(=O)c3ccccc3)ccc2O1
3.8 | C[C@H](CO)N1C[C@H](C)[C@@H](CN(C)Cc2ccc(-c3ccccc3)cc2)Oc2ccc(NS(C)(=O)=O)cc2CC1=O
2.3 | COc1ccc(NC(=O)N(C)C[C@@H]2Oc3c(cccc3N(C)C)C(=O)N([C@H](C)CO)C[C@H]2C)cc1
-2.7 | Cc1ccc(S(=O)(=O)Nc2ccc3c(c2)CC(=O)N([C@@H](C)CO)C[C@@H](C)[C@@H](CN(C)C(=O)Nc2c(C)noc2C)O3)cc1
-3.9 | CC(C)NC(=O)N(C)C[C@H]1Oc2ccc(N(C)C)cc2CC(=O)N([C@@H](C)CO)C[C@@H]1C
0.6 | C[C@H](CO)N1C[C@H](C)[C@H](CN(C)Cc2ccccc2)Oc2ccc(N(C)C)cc2CC1=O

3 compounds from above, arranged by their value in Ran FRET, lowest first.
Ran FRET | Molecule
-0.5 | C[C@H]1CCCCO[C@@H](CN(C)Cc2ccccc2)[C@@H](C)CN([C@@H](C)CO)C(=O)c2cc(NS(=O)(=O)c3ccccc3)ccc2O1
0.8 | C[C@H](CO)N1C[C@H](C)[C@H](CN(C)S(=O)(=O)c2cccs2)Oc2ccc(NC(=O)NC3CCCCC3)cc2C1=O
5.9 | Cc1noc(C)c1S(=O)(=O)Nc1ccc2c(c1)CC(=O)N([C@H](C)CO)C[C@H](C)[C@H](CN(C)C(=O)Nc1cccc3ccccc13)O2

Further structures follow.
Ran FRET | Molecule
0.9 | C[C@@H]1CN([C@@H](C)CO)C(=O)Cc2cc(N(C)C)ccc2O[C@H]1CN(C)CC1CCCCC1
2.5 | C[C@@H]1CN([C@H](C)CO)C(=O)c2cc(NC(=O)Cc3ccccc3)ccc2O[C@H]1CN(C)C(=O)NC1CCCCC1
-1.4 | COc1ccc(S(=O)(=O)N(C)C[C@@H]2Oc3ccc(NC(=O)Nc4ccc5c(c4)OCO5)cc3CC(=O)N([C@H](C)CO)C[C@H]2C)cc1
? | COc1ccc(NC(=O)N(C)C[C@@H]2Oc3c(NS(=O)(=O)c4cccs4)cccc3C(=O)N([C@H](C)CO)C[C@@H]2C)cc1
-0.1 | COc1ccc(S(=O)(=O)Nc2cccc3c2O[C@@H](CN(C)S(=O)(=O)c2cn(C)cn2)[C@@H](C)CN([C@H](C)CO)C3=O)cc1
-1.8 | COc1ccc(S(=O)(=O)N(C)C[C@@H]2Oc3ccc(NC(=O)C4CC4)cc3C(=O)N([C@@H](C)CO)C[C@@H]2C)cc1

Compound activity (PubChem BioAssay)
